CtBP-E1A inh – blocks the CtBP interaction with E1A; AlphaScreen GST-E1A/His-CtBP binding, 1536-well; stronger effect = lower value; control for the full effect not named in the record; activity change, % (test concentration not listed); 340,000 tested, 0.49% active; AID 651724; in the data active means activity change below about -65%; inconclusive means about -30% to -65%; inactive means above about -30%; further: on the % scale 0 is the no-effect control and ±100 the full control effect; compound concentration not given in the record
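Steps: dispense buffer (Tris pH 8.0, NaCl 300 mM, TCEP 1 mM, BSA, Tween 20); add 5X protein mix (GST-E1A, His-CtBP, 125 nM each); pin 23 nL compound; 2 h at 37 °C, dark; add 5X beads (50 ug/mL); 1 h; read.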
Six1-Eya2 inh – Six1/Eya2 interaction inhibition. Q15475+O00167. AlphaScreen GST-Six1/His-Eya2 binding, biochemical; stronger effect = lower value; control for the full effect not named in the record. activity change, % (test concentration not listed). 360,000 tested, 0.56% active; in the data active = activity change below about -65%; inconclusive = about -30% to -65%; inactive = above about -30%; further: on the % scale 0 is the no-effect control and ±100 the full control effect; compound concentration not given in the record
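AlphaScreen with GST-Six1 and His-Eya2 (5X mix: 250 nM and 500 nM), glutathione donor and nickel acceptor beads; buffer 50 mM Tris pH 8.0, 300 mM NaCl, 1 mM TCEP; 1 h at 37 C in the dark.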
TRPML1 ag – agonists of human TRPML1 channel. TRPML1-expressing cells, Ca2+ dye fluorescence, FDSS; host cell line not named in the record; reference of the full effect not given here. activation, % (test concentration not listed). 410,000 tested, 0.12% active. AID 624414; in the data active = activation above about 50%; inconclusive = about 30% to 50%; inactive = below about 30%; further: 0% is about no effect; the text of the record puts the active cut at 80%
Target sequence (Q9GZU1 whole entry, looked up): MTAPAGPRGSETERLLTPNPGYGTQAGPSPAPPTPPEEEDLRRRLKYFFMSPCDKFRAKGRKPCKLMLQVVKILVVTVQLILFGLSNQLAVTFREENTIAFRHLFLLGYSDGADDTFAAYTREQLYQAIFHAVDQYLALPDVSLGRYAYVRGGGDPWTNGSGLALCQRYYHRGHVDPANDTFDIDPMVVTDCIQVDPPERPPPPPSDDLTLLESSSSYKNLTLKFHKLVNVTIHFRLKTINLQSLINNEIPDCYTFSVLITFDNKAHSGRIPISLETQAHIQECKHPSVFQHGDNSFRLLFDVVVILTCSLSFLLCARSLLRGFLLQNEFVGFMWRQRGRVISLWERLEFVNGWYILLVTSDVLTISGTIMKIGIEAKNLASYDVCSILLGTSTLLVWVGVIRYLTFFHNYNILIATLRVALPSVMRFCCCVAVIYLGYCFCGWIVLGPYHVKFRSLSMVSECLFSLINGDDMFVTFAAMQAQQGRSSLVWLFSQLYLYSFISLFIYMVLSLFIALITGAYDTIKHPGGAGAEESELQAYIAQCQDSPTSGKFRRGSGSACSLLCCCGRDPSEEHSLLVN
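Calcium fluorescence on an FDSS kinetic reader gave the read-out. Tet-induced TRPML1-DL cells were plated overnight, dye-loaded (Ca8 with quencher, 45-90 min, room temperature, dark), then read 110 s after compound addition, and again 110 s after 4uM final 54-4 (EC80).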
D2 agonist – human D2 receptor agonism in beta-arrestin assay; P14416; DiscoveRx PathHunter D2 beta-arrestin, luminescence, 90 min; 100% = 57 uM dopamine signal; activation, % (no concentration beside the values); 360,000 tested, 0.084% active; AID 624465; in the data active = activation above about 40%; inconclusive = about 15% to 40%; inactive = below about 15%; further: compound concentration not given in the record; the text of the record calls up to 30% inactive
Target sequence (P14416 whole entry, looked up): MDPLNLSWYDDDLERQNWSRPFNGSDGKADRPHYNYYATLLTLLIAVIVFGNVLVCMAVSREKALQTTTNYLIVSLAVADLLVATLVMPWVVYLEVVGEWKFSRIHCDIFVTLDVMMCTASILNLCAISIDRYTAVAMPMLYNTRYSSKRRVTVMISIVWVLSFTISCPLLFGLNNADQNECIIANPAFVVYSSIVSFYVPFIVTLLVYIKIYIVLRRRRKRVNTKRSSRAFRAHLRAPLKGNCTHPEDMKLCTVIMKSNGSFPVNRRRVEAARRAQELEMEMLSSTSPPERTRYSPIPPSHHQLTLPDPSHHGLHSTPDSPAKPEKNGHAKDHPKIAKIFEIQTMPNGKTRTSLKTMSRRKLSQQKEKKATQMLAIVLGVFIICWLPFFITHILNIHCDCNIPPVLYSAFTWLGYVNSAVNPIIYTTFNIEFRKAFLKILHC
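Agonist mode: compounds alone added to overnight-plated D2 PathHunter cells for 90 min at 37 C, with 57 uM final dopamine (EC100) defining full response. Beta-arrestin recruitment detected by chemiluminescent reagent, read after 1 h at ambient temperature.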
D2 PAM – positive allosteric modulators of human D2 dopamine receptor; AID 624464; DiscoveRx D2 beta-arrestin cells, luminescence, 90 min; 100% = 57 uM dopamine signal; 360,000 tested, 0.23% active; P14416; potentiation, % (test concentration not listed); active = potentiation of 50% or more; inconclusive = 30% to 50%; inactive = 30% or less;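 further: compound concentration not given in the record; tested on top of an EC20 dose of dopamine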
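D2 cells co-treated with compound plus 50 nM dopamine (EC20) for 90 min at 37 deg C to detect potentiation. Beta-arrestin recruitment was read as enzyme-fragment luminescence after 1 h at ambient temperature. Full response was set by 57 uM dopamine.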
PINK1 modulator – changes PINK1 expression. Potency, µM (titrated, usually from 76.6 µM), inactives show top-dose activation (PINK1 increase), actives largely listed as activators. 410,000 tested, 0.2% active. PINK1 immunofluorescence, high-content cytometry, 24 h; active = well fitted activation curve with a large enough effect; inconclusive = small, poorly fitted or top-dose-only effect; inactive = flat fitted curve, though single readings scatter; cell line not stated here;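 further: potency means the concentration at half of the fitted maximal effect; % of control where 0% means no effect; nearly all actives have a fitted effect of over 65% in size; a mitochondrial uncoupler was the plate control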
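PINK1 protein level read as immunofluorescence by microplate cytometer in a fixed, stained stable cell line after 24 h exposure to five compound concentrations, with CCCP as control.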
Active calls of the source: *; u = inconclusive; x = no result given; [ ] = dose if it differs, or a comment. Compounds were not picked by outcome, and some 1.3% of all compounds hit somewhere here.

SMILES	CtBP-E1A inh	Six1-Eya2 inh	TRPML1 ag	D2 agonist	D2 PAM	PINK1 modulator
COC(=O)c1cccc(C(=O)N2CCCC(Nc3ccc(C)c(C)c3)C2)c1 (stereo not given)	2	-2	-0.8	-2.2	-4	1.7%
COc1ccc(-c2[nH]ncc2CN2CCN(Cc3cccs3)CC2)cc1F	0	16	0.1	-0.5	-15	-0.8%
COc1ccc(CC(=O)Nc2cccc(C(=O)O)c2C)cc1	9	4	0.6	-2.2	-4	7.5%[38.3 µM]
COc1nc(NCCO)nc(Nc2ccccc2F)n1	7	8	0.8	0.8	2	0.2%
CCN1CCN(c2nc3sc4c(c3c3ncnn23)CC(C)CC4)CC1 (stereo not given)	-15	-22	0.4	-4.3	-31	9.3%
CCOc1ccccc1Oc1c(C)oc2c(CN3CCN(CCO)CC3)c(O)ccc2c1=O	-3	5	1.3	-0.5	-4	6.3%
COc1ccc(CN(C)CC2CCCN(CCc3ccc(F)cc3)C2)c(OC)c1OC (stereo not given)	-23	-11	0.7	-6.1	-5	1.2%
CN1CCN(CCCNC(=O)c2ccc3c(c2)N(Cc2ccccc2)CCS3)CC1	-5	-19	3.6	-1.7	-6	-0.9%
COc1ccccc1NC(=O)CCSc1ccc(C)cc1	-1	10	2.6	-1.5	6	-4.4%
COc1ccc(-c2[nH]ncc2C=O)cc1OC	1	13	-0.7	-0.8	1	0.2%
CCOC(=O)CSc1cc(CS(C)(=O)=O)nc(-c2ccccn2)n1	-1	7	-0.6	-2.5	-8	-1.1%
Cc1ccc(Nc2nc(Nc3ccc(C)cc3)nc(SC3=NCCS3)n2)cc1	-21	-23	-0.1	-1.4	-2	u
CN(O)/C=C1\C(=O)Nc2ccccc21	4	15	-0.8	7.6	131*	0.3%
CCCCn1c(N)c(N(CCC(C)C)C(=O)c2cccc(N3C(=O)c4ccccc4C3=O)c2)c(=O)[nH]c1=O	-11	10	-0.5	-0.9	-11	0.8%
Cc1cc(Cl)ccc1OCc1n[nH]c(=S)n1C1CCCCC1	-4	2	1.2	3.1	15	-2.2%
O=C(COC(=O)c1sc2ccccc2c1Cl)Nc1ncc(Cl)cc1Cl	-2	18	0.6	-6.7	-8	5.5%
CC(C)=C1C2CCC1C1C(=O)N(CCc3ccccc3)C(=O)C21 (stereo not given)	-6	11	0.4	3.7	-11	3.5%
Cc1cc(C)n(CC(O)COc2ccc(Cl)cc2Cl)n1 (stereo not given)	4	6	-0.4	-3.5	-4	0.3%
COc1ccc(C2NC(=O)CS2)cc1OC (stereo not given)	-4	8	-0.7	0.6	5	0.4%
Cc1cc(NC(=O)Cn2nc(C(F)(F)F)c3c2CCC3)n(-c2ccccc2)n1	-11	1	6.2	-1.4	-13	0.1%
O=C(C1CCCN(S(=O)(=O)c2ccccc2)C1)N1CCCc2ccccc21 (stereo not given)	-5	-2	1.6	-2.2	-6	0.3%
Cc1ccc(CCNC(=O)CCNS(=O)(=O)c2ccc3c(c2)oc(=O)n3C)cc1	0	0	-0.5	-3.1	0	8.2%[38.3 µM]
O=S(=O)(NCC1CCCO1)c1ccccc1F (stereo not given)	3	2	1.1	-3.3	6	-0.2%
CCCN(CCC)C(=O)c1ccc2c(=O)n(Cc3ccco3)c(=S)[nH]c2c1	x	-7	0.9	-3.2	-15	-1.1%
CC(=O)c1ccc(N(C(=O)c2csnn2)C(C(=O)NC(C)(C)C)c2cccs2)cc1 (stereo not given)	x	10	1.0	-4.5	-3	0.3%
NC(=O)c1c(NC(=O)c2cc3ccccc3o2)sc2c1CCC2	-7	-2	-0.7	-5.9	-18	8.7%
C=CCNC(=S)NNC(=O)c1ccc(OC(C)C)cc1	6	13	-0.4	-5.8	-6	x
O=C(O)CC(NC(=O)C1CCCCC1)c1cc([N+](=O)[O-])ccc1Cl (stereo not given)	5	-2	-0.4	-4.7	-4	0.3%
CS(=O)(=O)N(CCc1ccccc1)CC(=O)Nc1ccc(OCc2ccccc2)cc1	-3	0	2.8	1.4	-1	0.3%
CCN(CC)c1ccc2c(c1)OC(N)=C(C#N)C2c1cccnc1 (stereo not given)	1	-1	70*	14	6	2.9%
Cc1cccc(C(O)c2ncc(-c3cccc(C(F)(F)F)c3)[nH]2)c1C (stereo not given)	-3	-13	-1.0	-2.6	-13	4.3%
O=C(c1cc(Cl)cc(Cl)c1)N1CCC2CC1c1cc(-c3ccc4c(c3)OCO4)ccc12 (stereo not given)	2	-17	0.1	-0.1	x	-0.3%
COC(=O)c1ccccc1NC(=O)c1cnn2c(C(F)F)cc(C3CC3)nc12	-4	14	1.7	-0.7	15	-0.3%
O=C(Nc1cccc(Br)c1)c1ccc2nc(N3C(=O)CCC3=O)sc2c1	-3	-1	-1.2	-1.9	-4	-2.6%
CCCC1(c2ccccc2)NC(=O)N(CC(=O)Nc2cc(C)ccc2OC)C1=O (stereo not given)	-3	-1	2.8	-2.8	-14	0.6%
C=CCNC(=O)c1ccc(-c2nc(-c3ccc(Cl)c(Cl)c3)cs2)cc1	13	3	-0.5	-2.2	-20	x
COc1ccc(C(c2c(NC(=O)c3ccco3)sc(C)c2C)N2CCOCC2)cc1OC (stereo not given)	-5	-9	0.4	1.5	1	1.1%
Cn1c(CNC(=O)c2ccco2)nnc1SCC(=O)Nc1cccc(Br)c1	-3	3	0.2	0.2	-15	-1.7%
CSc1ncc(C(C)=O)c(C)n1	3	6	3.8	-2.2	-4	0.4%
CC(C)CCn1c(CN2CC(C)OC(C)C2)nc2c1c(=O)n(C)c(=O)n2C (stereo not given)	-4	-1	-1.0	-2.9	3	1.7%
O=C(CSc1nc2ccccc2o1)Nc1nncs1	7	4	-0.6	0.0	11	-0.9%
CCCCC(=O)NC(=S)Nc1cc(C(=O)O)ccc1OC	4	4	0.0	0.2	-4	-0.8%
O=c1c2ccccc2nc(-c2ccc(Br)cc2)n1Cc1ccccc1	8	-1	1.1	1.4	16	x
Cc1ccc(-c2ccnc(-c3ccc(O)cc3)n2)cc1	-1	-5	0.7	0.9	-5	4.0%
COc1ccc(OCC(=O)C2CC2)c(C#N)c1	x	-1	-0.8	-7.2	-20	0.2%
Cc1cc(C)cc(Oc2nc3ccccn3c(=O)c2/C=C(\C#N)C(=O)NC2CCS(=O)(=O)C2)c1 (stereo not given)	4	4	0.2	-0.2	-1	1.0%
CCC(C)S(=O)(=O)c1snnc1C (stereo not given)	2	0	-0.4	-4.1	12	-1.6%
Cc1c(Cl)cccc1-n1ccnc1SCC(=O)O	4	2	0.3	-3.6	-5	-3.3%
CC(C)(C)C(=O)Cn1ncc(N2CCCC2)c(Br)c1=O	7	-1	0.6	3.0	5	-0.5%
CC(C)CCC1=NN(C(=O)c2ccco2)C(O)(C(F)(F)F)C1 (stereo not given)	2	1	4.8	0.9	-3	1.9%

The listing continues:
SMILES	CtBP-E1A inh	Six1-Eya2 inh	TRPML1 ag	D2 agonist	D2 PAM	PINK1 modulator
COc1ccc(-c2noc(-c3ccccc3-c3ccccc3)n2)cc1OC	25	10	0.7	0.5	-7	4.4%
CC(C)(C)c1ccc(S(=O)(=O)N2CCN(C(=O)c3ccc4c(c3)C(=O)N(Cc3ccncc3)C4=O)CC2)cc1	-15	5	0.0	-1.7	-2	0.8%
O=C(c1ccccc1)c1cc(Cl)ccc1N1C(=O)C=CC1=O	2	0	0.5	-7.4	-18	6.5%
O=C(NC1CC1)C1=C[C@H](c2csc3ccccc23)C[C@H](OCCCCO)O1	-1	2	-1.2	1.9	-17	1.8%
CCOC(=O)CC(=O)Nc1cc2ccc(OC)c(OC)c2cc1C(=O)OCC	1	1	-0.5	-3.1	1	0.0%
C=CCNC(=O)CSc1nc2ccccc2c(=O)n1CCc1ccc(OC)c(OC)c1	3	-8	0.0	0.4	9	5.2%
Cc1nc(-c2ccc(S(=O)(=O)N3CCOCC3)cc2)cs1	8	3	0.1	1.0	-12	0.0%
COc1cc(CNn2cnnc2)ccc1OCC(=O)NC(C)(C)C	-2	-14	-0.3	-4.5	11	-1.2%
CCOC(=O)C(=O)NCC(c1cccs1)S(=O)(=O)c1ccc(Cl)cc1 (stereo not given)	u	-3	-0.1	7.4	-28	0.1%
CC(=O)Nc1ccc(NS(C)(=O)=O)cc1	-1	5	1.8	-2.0	17	-1.3%
C=CCSc1nc2sc3c(c2c(=O)[nH]1)CC(C)(C)OC3	1	-5	-0.6	-2.7	-4	6.0%
Cc1cccc(NC(=O)CSCC(=O)N2CCN(C(=O)c3ccco3)CC2)c1	-4	2	2.1	1.3	-1	1.5%
CC(C)c1ccc(-c2nn(-c3ccccc3)cc2C(=O)NCC2CCCO2)cc1 (stereo not given)	1	2	4.3	5.1	1	10.0%
CC(NC(=O)c1ccco1)C(=O)Nc1nc(-c2ccccn2)cs1 (stereo not given)	-88*	-83*	-0.3	-1.5	-9	-4.4%
O=C(c1cc2n(n1)C(C(F)(F)F)CC(c1ccc(Cl)cc1)N2)N1CCCC1 (stereo not given)	-16	7	2.5	-2.6	-1	-0.7%
COc1cc(/C=C/C(=O)OCC(=O)Nc2ccc(Cl)cn2)ccc1O	x	-5	-1.7	0.6	12	11%
COc1ccc([C@H]2C=C(C(=O)O)O[C@@H](OCc3ccc(CO)cc3)C2)cc1	-2	0	-0.2	-3.3	-11	1.4%
O=C(COC(=O)C1CC2CCCC(C1)C2=O)NNC(=O)c1ccccc1Br (stereo not given)	-3	9	0.5	-1.5	-9	1.6%
CCc1cc2c(SCc3nc4sc(C(C)=O)c(C)c4c(=O)[nH]3)ncnc2s1	-5	-9	1.1	-1.5	-10	9.1%
CCn1cc(-c2ccnc3cc(C(=O)O)nn23)c(C)n1	0	-5	0.6	1.1	-1	-3.9%
O=C(CNC(=O)c1ccc(Br)cc1)NC1=NCCS1	-7	0	0.0	-0.2	-6	1.1%
CC(=O)N1CC=CC1(C)C(=O)O (stereo not given)	0	4	0.3	-2.1	-8	-0.6%
Cc1nn(C(C)(C)C)c(OC(=O)c2cccs2)c1S(=O)(=O)c1ccccc1	-3	-7	1.0	-3.8	-5	-0.8%

A draw from above in order of length of the SMILES, lowest first.
SMILES	CtBP-E1A inh	Six1-Eya2 inh	TRPML1 ag	D2 agonist	D2 PAM	PINK1 modulator
CC(=O)N1CC=CC1(C)C(=O)O (stereo not given)	0	4	0.3	-2.1	-8	-0.6%
O=C(CNC(=O)c1ccc(Br)cc1)NC1=NCCS1	-7	0	0.0	-0.2	-6	1.1%
CCn1cc(-c2ccnc3cc(C(=O)O)nn23)c(C)n1	0	-5	0.6	1.1	-1	-3.9%
CC(NC(=O)c1ccco1)C(=O)Nc1nc(-c2ccccn2)cs1 (stereo not given)	-88*	-83*	-0.3	-1.5	-9	-4.4%
CC(C)c1ccc(-c2nn(-c3ccccc3)cc2C(=O)NCC2CCCO2)cc1 (stereo not given)	1	2	4.3	5.1	1	10.0%
CCc1cc2c(SCc3nc4sc(C(C)=O)c(C)c4c(=O)[nH]3)ncnc2s1	-5	-9	1.1	-1.5	-10	9.1%
